Screening results from PubChem BioAssay.
MLL AF4-AF9 inh – MLL-AF4/AF9 protein interaction inhibition; P42568; AlphaScreen, biotin-AF4 peptide binding to FLAG-AF9; inhibition, % at 10 µM; 350,000 compounds, 0.47% hits; AID 651704;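 active = every replicate reaching a set inhibition limit, whatever the replicate mean, cut at about 25% in these data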;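 note: 0% = plate neutral control median and 100% = total signal loss; the record names both 10 and 1 µM as test concentration; the first replicate is given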
Target sequence (P42568 whole entry, looked up): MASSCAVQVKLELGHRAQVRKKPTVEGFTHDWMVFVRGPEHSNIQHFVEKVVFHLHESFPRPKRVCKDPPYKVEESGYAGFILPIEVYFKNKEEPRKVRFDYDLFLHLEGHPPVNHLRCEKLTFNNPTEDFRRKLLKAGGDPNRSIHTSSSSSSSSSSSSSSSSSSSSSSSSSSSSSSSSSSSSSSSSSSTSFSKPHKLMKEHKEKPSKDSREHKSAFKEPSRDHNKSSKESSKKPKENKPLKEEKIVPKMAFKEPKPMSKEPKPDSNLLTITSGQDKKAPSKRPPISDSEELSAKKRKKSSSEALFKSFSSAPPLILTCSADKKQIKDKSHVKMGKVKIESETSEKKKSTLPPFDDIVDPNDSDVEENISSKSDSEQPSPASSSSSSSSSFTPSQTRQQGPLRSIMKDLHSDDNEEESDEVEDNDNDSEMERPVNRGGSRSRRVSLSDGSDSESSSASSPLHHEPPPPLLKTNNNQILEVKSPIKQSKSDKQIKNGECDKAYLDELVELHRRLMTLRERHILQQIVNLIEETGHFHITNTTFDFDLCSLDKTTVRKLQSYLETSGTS
FGF22 binding – FGF22 (human) thermal shift binding | calls only at 9.99 µM | AID 651658 | 340,000 compounds, 1.5% hits | Q9HCT0 | recombinant FGF22 thermal shift, SYPRO orange fluorescence; percent of sucrose octasulfate shift, DMSO zero;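 active = melting point raised past a set limit in the mean and every replicate; three in four hits are not shown here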
Target sequence (Q9HCT0 whole entry, looked up): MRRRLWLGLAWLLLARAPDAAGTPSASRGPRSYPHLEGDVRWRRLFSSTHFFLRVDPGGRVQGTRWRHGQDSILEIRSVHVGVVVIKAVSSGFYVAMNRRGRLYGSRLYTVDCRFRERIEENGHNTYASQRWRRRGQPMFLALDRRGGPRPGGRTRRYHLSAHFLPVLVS
rRNA inh HTS – inhibitors of bacterial rRNA selective over humanized ribosomes | E. coli WT GFP vs humanized-ribosome RFP mutants, fluorescence, 24 h; stronger effect = lower value; DMSO median 0, no signal -100 | GFP signal change (wild-type ribosome), % (test concentration not listed) | 350,000 compounds, 1.6% hits | AID 720706;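 active = significant combined selectivity score with lowered wild-type GFP, culture density cut under 30%, mutant RFP and density less affected; inactive = any of these conditions unmet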; note: one replicate is shown; some compounds called inactive have numbers as strong as hits
rRNA inh HTS OD600 – recorded beside rRNA inh HTS, whose call it bears; OD600 change, %; measured here: OD600 growth;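 optical density of the mix in the first replicate; 0 = DMSO median and -100 = no signal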
rRNA inh HTS RFP – also measured in rRNA inh HTS; calls as there; RFP signal change, %; measured here: RFP humanized mutant strains;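 first replicate; 0 = DMSO median and -100 = no signal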
Starred values were filed as active, the others as inactive; i = inactive; · = not tested or not shown; + = active, no number.

item	Structure	FGF22 binding	rRNA inh HTS OD600	rRNA inh HTS	MLL AF4-AF9 inh	rRNA inh HTS RFP
1	CCCC(=O)Nc1ccc2c(c1)C(=O)N(C)C[C@H](OC)[C@H](C)CN(Cc1ccc(-c3ccccn3)cc1)[C@H](C)CO2	i	1.0	-0.5	0.9	-2.7
2	Cc1cccc(NC(=O)Nc2ccc3c(c2)C(=O)N(C)[C@@H]2CC[C@H](CC(=O)O)O[C@@H]2CO3)c1	i	2.2	0.1	2.4	-4.5
3	OCCN1CCN(c2ncnc3c2ncn3[C@H]2CN(Cc3cccnc3)C[C@@H](CO)O2)CC1	i	-0.6	4.2	-9.8	-3.4
4	Cc1noc(C)c1NC(=O)N(C)C[C@@H]1Oc2c(NC(=O)C3CCOCC3)cccc2C(=O)N([C@H](C)CO)C[C@H]1C	i	2.8	3.6	-9.7	0.4
5	Clc1ccc2c(SCC3CO3)c3ccccc3nc2c1 (stereo not given)	i	15.8	28.8	-2.8	2.2
6	CCCNC(=O)C[C@@H]1C[C@@H]2c3cc(NS(C)(=O)=O)ccc3O[C@@H]2[C@H](CO)O1	i	-17.6	-1.4	-1.8	8.3
7	O=C(C[C@H]1CC[C@@H]2[C@H](COC[C@H](O)CN2C(=O)c2ccc(F)cc2)O1)N1CCCCC1	i	3.2	2.6	-1.0	-0.6
8	Nc1ncc2[nH]c(N)nc2n1	i	7.5	6.7	-1.7	-3.9

Shown with each value named: entries from further up.
2	Cc1cccc(NC(=O)Nc2ccc3c(c2)C(=O)N(C)[C@@H]2CC[C@H](CC(=O)O)O[C@@H]2CO3)c1
  FGF22 binding = i
  rRNA inh HTS OD600 = 2.2
  rRNA inh HTS = 0.1
  MLL AF4-AF9 inh = 2.4
  rRNA inh HTS RFP = -4.5

3	OCCN1CCN(c2ncnc3c2ncn3[C@H]2CN(Cc3cccnc3)C[C@@H](CO)O2)CC1
  FGF22 binding = i
  rRNA inh HTS OD600 = -0.6
  rRNA inh HTS = 4.2
  MLL AF4-AF9 inh = -9.8
  rRNA inh HTS RFP = -3.4

Following part
item	Structure	FGF22 binding	rRNA inh HTS OD600	rRNA inh HTS	MLL AF4-AF9 inh	rRNA inh HTS RFP
9	CO[C@@H]1CN(C)C(=O)c2ccc(NS(=O)(=O)c3ccc(Cl)cc3)cc2OC[C@@H](C)NC[C@@H]1C	i	2.9	1.3	-12.8	1.3
10	COc1ccc(S(=O)(=O)Nc2cccc3c2O[C@@H](CN(C)C(=O)Nc2ccc(C(F)(F)F)cc2)[C@@H](C)CN([C@@H](C)CO)C3=O)cc1	i	-10.4	-4.5	1.8	-1.0
11	COc1ccc(NC(=O)c2ccc(S(=O)(=O)N(C)c3ccccc3)cc2)cc1S(=O)(=O)N1CCOCC1	·	2.2	10.9	-2.2	3.5
12	CN1C(=O)c2cc(NC(=O)Nc3ccccc3)ccc2OC[C@@H]2O[C@@H](CC(=O)NC3CCC3)CC[C@@H]21	i	-3.7	1.3	-0.4	0.4
13	C[C@@H]1CN([C@H](C)CO)C(=O)c2cc(N(C)C)ccc2O[C@@H](C)CCCCO[C@H]1CN(C)S(=O)(=O)c1ccccc1	i	-0.9	-5.8	0.3	-5.2
14	Cn1c(=O)c2[nH]c(C(O)c3ccc(Cl)cc3)nc2n(C)c1=O (stereo not given)	i	-3.0	-5.6	-1.5	1.6
15	O=C(C[C@@H]1CC[C@@H](NC(=O)Nc2ccc(F)cc2)[C@H](CO)O1)NCc1cccc(F)c1	i	6.5	1.6	-2.1	-1.0
16	COCCNC(=O)[C@@H]1[C@@H](CO)[C@@H]2Cn3c(ccc(-c4ccc(OC)cc4)c3=O)[C@H]1N2C(=O)NC(C)C	i	-1.1	1.6	0.9	-0.5
17	CCC(=O)N1[C@@H]2c3ccc(-c4cccc(F)c4)c(=O)n3C[C@@H]2[C@@H](CO)[C@@H]1C(=O)OC	i	5.8	3.9	1.9	-0.4
18	COc1ccc(NC(=O)Nc2ccc3c(c2)C(=O)N([C@H](C)CO)C[C@@H](C)[C@@H](CN(C)Cc2ccc(C(=O)O)cc2)O3)cc1	i	1.2	0.5	-2.0	-0.6
19	CO[C@H]1CN(C)C(=O)c2ccc(NC(=O)Nc3c(C)noc3C)cc2OC[C@@H](C)NC[C@H]1C	i	2.6	2.4	-4.2	-1.1
20	C[C@@H]1CN([C@H](C)CO)S(=O)(=O)c2ccc(-c3ccccc3)cc2O[C@H]1CN(C)C(=O)C1CCCCC1	i	-41.0	-12.4	0.6	24.5
21	C[C@@H]1CN([C@@H](C)CO)C(=O)c2cc(NC(=O)CCC(F)(F)F)ccc2O[C@H]1CN(C)Cc1ccccc1	i	8.2	-1.4	-2.2	-0.2
22	O=C(c1ccccc1)N1CC2(C1)[C@@H](c1ccccc1)[C@@H](CO)N2CC1CC1	i	-10.4	-3.1	-0.2	-2.6
23	COc1cc(/C=C/CNC[C@H]2O[C@@H](n3ccc(=O)[nH]c3=O)[C@H](O)[C@@H]2O)ccc1O	i	9.2	2.6	-3.2	2.8
24	OCc1cccc(-c2csc(C(O)c3ccco3)n2)c1 (stereo not given)	i	7.9	1.2	-0.8	-2.1

A second format for two compounds above:
Values in the order: FGF22 binding | rRNA inh HTS OD600 | rRNA inh HTS | MLL AF4-AF9 inh | rRNA inh HTS RFP
17	CCC(=O)N1[C@@H]2c3ccc(-c4cccc(F)c4)c(=O)n3C[C@@H]2[C@@H](CO)[C@@H]1C(=O)OC
    i | 5.8 | 3.9 | 1.9 | -0.4
18	COc1ccc(NC(=O)Nc2ccc3c(c2)C(=O)N([C@H](C)CO)C[C@@H](C)[C@@H](CN(C)Cc2ccc(C(=O)O)cc2)O3)cc1
    i | 1.2 | 0.5 | -2.0 | -0.6

Remaining list, next part.
item	Structure	FGF22 binding	rRNA inh HTS OD600	rRNA inh HTS	MLL AF4-AF9 inh	rRNA inh HTS RFP
25	COc1cccc(CNC(=O)[C@H]2[C@H](CO)[C@H]3Cn4c(ccc(-c5cccnc5)c4=O)[C@H]3N2C)c1	i	7.1	4.9	3.1	2.2
26	C[C@@H]1CN([C@@H](C)CO)C(=O)c2cc(NC(=O)Nc3ccc(F)cc3)ccc2O[C@@H]1CN(C)C(=O)NC1CCCCC1	i	-6.7	1.0	0.3	1.2
27	CCOc1ccc(CCN2C(=O)C(=O)N([C@@H](Cc3ccccc3)CN3CCC[C@@H]3CN3C(=O)C(=O)NC[C@@H]3Cc3ccc(O)cc3)C[C@@H]2Cc2ccccc2)cc1	i	5.5	4.7	1.4	-3.0
28	O=C(CCCCC(=O)OCC1COCO1)OCC1COCO1 (stereo not given)	i	13.4	14.4	1.1	3.3
29	Cc1cc2c(nc1C)CCCN2S(=O)(=O)c1ccc(F)cc1	·	-23.3	-10.9	-0.5	-2.9
30	O=C(Nc1ccc2c(c1)OCO2)N[C@@H]1CC[C@H](CCNC(=O)C2CC2)O[C@@H]1CO	i	-0.6	-0.9	-5.7	0.5
31	CC(C)CC#Cc1ccc2c(c1)O[C@@H](CN(C)C(=O)c1ccncc1)[C@H](C)CN([C@@H](C)CO)S2(=O)=O	i	-13.1	-10.3	0.3	-6.5
32	C/C=C/c1ccc([C@@H]2[C@@H](CO)N(C(C)=O)C23CN(C(=O)c2ccncc2)C3)cc1	i	10.3	1.9	-0.7	1.4
33	C[C@@H]1CN([C@H](C)CO)C(=O)Cc2cc(NS(C)(=O)=O)ccc2O[C@H]1CN(C)S(=O)(=O)c1ccc(Cl)cc1	i	0.8	-5.0	0.2	-0.7
34	CN(C(=O)c1cccc(NC(=O)Cc2cccc(NC(=O)C3CCN(C(=O)C4CC4)CC3)c2)c1)C1CCC1	i	3.0	11.5	-3.7	3.8
35	Cc1ccc(CN2C(=O)C(CC(C)C)Nc3ncnc(N4CCCCC4)c32)cc1 (stereo not given)	i	-48.5	-23.4	2.5	-9.1
36	CO[C@@H]1CN(C)C(=O)c2cc(NC(=O)C3CCCC3)ccc2OC[C@@H](C)N(CC2CC2)C[C@@H]1C	i	-0.7	2.2	0.6	-1.0
37	COc1ccc(NC(=O)Nc2cccc3c2O[C@H](CN(C)Cc2ccccc2)[C@H](C)CN([C@@H](C)CO)C3=O)cc1	i	3.4	1.5	1.3	-1.2
38	C[C@H]1CN([C@@H](C)CO)C(=O)c2cc(NC(=O)Cc3ccccc3)ccc2O[C@H]1CN(C)Cc1ccc(C(F)(F)F)cc1	i	-30.8	-4.2	2.8	5.2
39	C[C@H](CO)N1C[C@H](C)[C@H](CN(C)S(=O)(=O)c2cccc(C#N)c2)OCc2ccccc2-c2ccccc2C1=O	i	5.5	0.6	0.9	1.1
40	CCNC(=O)[C@@H]1[C@@H](CO)[C@@H]2Cn3c(ccc(-c4cncnc4)c3=O)[C@H]1N2C(=O)Nc1ccccc1	i	-5.5	-2.5	-0.6	1.7
41	O=C(C[C@@H]1C[C@H]2c3cc(NC(=O)Nc4ccc(F)cc4)ccc3O[C@H]2[C@@H](CO)O1)NC1CCCC1	i	1.8	-3.7	0.1	10.0
42	O=C(Nc1cccc(F)c1)N1CCCCN2[C@H](C1)[C@@H](c1ccc(-c3ccncc3)cc1)[C@@H]2CO	i	-38.2	-11.7	2.9	21.3
43	Cc1noc(C)c1NC(=O)Nc1ccc2c(c1)CC(=O)N([C@H](C)CO)C[C@@H](C)[C@@H](CN(C)C(=O)Nc1ccccc1)O2	i	7.7	5.4	-3.0	-1.1
44	CCOC1=C2[C@@H](CN(S(=O)(=O)c3ccccc3C)[C@H]2c2ccc(Cl)cc2)[C@H]2C(=O)N(C3CCCCC3)C(=O)[C@H]2C1	i	-2.0	1.4	-1.8	-7.3
45	O=C(c1cccc(F)c1)N1CCCCN2[C@@H](CO)[C@H](c3ccc(-c4cccnc4)cc3)[C@@H]2C1	i	13.6	-2.2	-0.9	-0.9
46	CC(=O)N(C)C[C@@H]1OCc2ccccc2-c2c(n(C)c3ccccc23)C(=O)N([C@H](C)CO)C[C@H]1C	i	13.0	0.4	-3.2	-4.7
47	CN(C)c1ccc2c(c1)[C@@H]1C[C@@H](CC(=O)NCc3ccc4c(c3)OCO4)O[C@@H](CO)[C@@H]1O2	i	-0.8	1.0	5.9	3.0
48	C[C@H](CO)N1C[C@H](C)[C@H](CN(C)S(=O)(=O)c2ccc([N+](=O)[O-])cc2)OCc2ccccc2-c2c(n(C)c3ccccc23)C1=O	i	0.6	0.4	5.7	0.6
49	COCC(=O)N1CCCCN2[C@@H](CO)[C@@H](c3ccc(-c4ccc(C)cc4)cc3)[C@@H]2C1	i	0.7	0.8	-4.7	9.3
50	O=C(C[C@H]1CC[C@H](NS(=O)(=O)c2ccc(F)cc2)[C@@H](CO)O1)N1CCC(Cc2ccccc2)CC1	i	-16.4	3.5	-1.7	4.0
51	C[C@@H]1CN([C@H](C)CO)C(=O)c2cccc(NC(=O)C3CCOCC3)c2O[C@H]1CN(C)Cc1ccc(C(F)(F)F)cc1	i	-8.8	-1.9	-3.4	0.7
52	Cc1ccc(S(=O)(=O)N2CCCN(Cc3nc4ccccc4c(=O)[nH]3)CC2)cc1	i	-11.5	-6.5	-0.5	0.4
53	CCCNC(=O)C[C@@H]1CC[C@H]2[C@@H](COc3ccc(NC(=O)c4cccc(Cl)c4)cc3C(=O)N2C)O1	i	5.0	3.6	0.1	6.8
54	CC[C@H](C)[C@H]1CNC(=S)N1CC1CCN(CCC23CC4CC(CC(C4)C2)C3)CC1	i	12.8	7.6	2.4	0.9
55	Cc1ccc(S(=O)(=O)N(C)C[C@@H]2Oc3c(NC(=O)c4cnccn4)cccc3C(=O)N([C@@H](C)CO)C[C@@H]2C)cc1	i	-2.1	-3.6	1.8	-0.9
56	Cc1ccccc1-c1ccc([C@H]2[C@H](CO)N3CCCCN(S(C)(=O)=O)C[C@@H]23)cc1	i	-2.6	0.6	1.9	1.0
57	CC(C)NC(=O)N(C)C[C@@H]1OCCCC[C@@H](C)Oc2ccc(NC(=O)Cc3ccccc3)cc2C(=O)N([C@H](C)CO)C[C@@H]1C	i	9.8	6.2	-4.0	0.6
58	CN1c2ccc(-c3ccccc3F)cc2[C@@H]2[C@@H](CCN2C(=O)c2ccccn2)[C@H]1CO	i	-40.4	-10.6	-3.6	14.0
59	C[C@H](CO)N1C[C@H](C)[C@@H](CN(C)S(=O)(=O)c2ccccc2)Oc2ccc(NC(=O)Nc3ccc(C(F)(F)F)cc3)cc2CC1=O	i	2.4	-1.6	0.0	3.3
60	COc1ccc2c3c([nH]c2c1)[C@H](CO)N(C(=O)Nc1ccc(F)cc1)CC31CCN(S(=O)(=O)c2cccs2)CC1	+	-3.0	1.7	-0.2	0.4

Not all compounds are listed, so the mix of outcomes need not match the whole.
